# Compound activity from PubChem BioAssay.
# Calb FLC: C. albicans growth inhibition with fluconazole, primary screen, CaCi-2 strain, Alamar Blue fluorescence; C. albicans CaCi-2 (fluconazole-resistant clinical isolate) + fluconazole, 48 h; growth inhibition, % (no concentration beside the values); hit rate 0.57% among 300,000;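 active = most replicates above 75%; inconclusive = exactly half above 75%; inactive = most below 75%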;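 note: all wells also contain fluconazole at 8 µg/ml as a sub-toxic cotreatment; 0% = median of DMSO wells and 100% = median of geldanamycin control wells; wells of about 8 µL received 7.5 nL stock; the first replicate is given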
# LANA-H2A inh: blockers of LANA interaction with H2A/H2B – biochemical, FP readout, HTS, primary screen. AID 2629, 2010. inhibition, % (test concentration not listed). cell-free LANA-H2A/H2B peptide, fluorescence polarization. hit rate 0.6% among 320,000. Protein LANA1 (Human herpesvirus 8 type P (isolate GK18)), Q9QR71; in the data active = inhibition mostly above about 10%, no sharp cut-off; inactive = mostly below about 6.7%;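 note: stock transfer was 7.5 nL into about 10 µL; 0% = median of vehicle wells and 100% = median of positive control wells; one replicate is shown; the record names a cut of 25% in any replicate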
# B2AR ag: beta2AR agonists driving receptor internalization, primary screen, cell-based, FAP fluorogen, flow cytometry. Am2.2-beta2AR cells; reference of the scale not given here. AID 504454, 2011. response, % (test concentration not listed). hit rate 0.43% among 340,000;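 active = response above a set limit, near 3 SD of response in nonfluorescent compounds, cut at about 42% in these data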;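 note: stock transfer was 100 nL into about 11 µL; a reference agonist was the positive control; negative values mostly stem from fluorescent compounds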
# Target sequence (P07550 whole entry, looked up): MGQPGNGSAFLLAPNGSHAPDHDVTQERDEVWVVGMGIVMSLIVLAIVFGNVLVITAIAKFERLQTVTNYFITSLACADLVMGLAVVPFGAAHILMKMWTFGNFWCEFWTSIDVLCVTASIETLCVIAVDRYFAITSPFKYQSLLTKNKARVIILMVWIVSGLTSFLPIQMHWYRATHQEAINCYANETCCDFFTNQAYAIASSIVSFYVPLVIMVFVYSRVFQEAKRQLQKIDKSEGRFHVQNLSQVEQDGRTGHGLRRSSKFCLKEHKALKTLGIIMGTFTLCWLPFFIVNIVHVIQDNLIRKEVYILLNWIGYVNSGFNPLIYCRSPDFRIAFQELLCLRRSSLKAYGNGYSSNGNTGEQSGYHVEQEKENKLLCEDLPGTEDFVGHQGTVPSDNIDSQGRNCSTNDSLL
# T cruzi inh: inhibitors of intracellular T. cruzi growth, primary screen, luminescence, NIH3T3 host cells; T. cruzi beta-gal in NIH3T3, 90 h; inhibition, % (concentration not given with the values); hit rate 1.4% among 300,000; AID 1885, 2009;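 active = mean inhibition across valid replicates above about 55%, limit read from the data; inconclusive = mean below that limit but half or more replicates reach it; inactive = mean below it, under half of replicates reach it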;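 note: signal also drops with host cell toxicity which is not excluded here; 0% = plate median of DMSO wells and 100% = zero luminescence signal; higher percent means less beta-gal luminescence so fewer parasites; stock transfer was 50 nL into about 50 µL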
# UCH37 inh: inhibitors of human UCH37 deubiquitinase, primary screen, biochemical, Ub-AMC cleavage, fluorescence | AID 588478, 2011 | hit rate 0.33% among 330,000 | purified proteasome/UCH37 | inhibition, % (no concentration beside the values) | Ubiquitin carboxyl-terminal hydrolase isozyme L5 (Homo sapiens), Q9Y5K5;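 active = mean of two replicates above 20%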;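 note: 0% = compound-free wells with enzyme and 100% = wells lacking proteasome; stock transfer was 100 nL into about 20 µL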
# Target sequence (Q9Y5K5 whole entry, looked up): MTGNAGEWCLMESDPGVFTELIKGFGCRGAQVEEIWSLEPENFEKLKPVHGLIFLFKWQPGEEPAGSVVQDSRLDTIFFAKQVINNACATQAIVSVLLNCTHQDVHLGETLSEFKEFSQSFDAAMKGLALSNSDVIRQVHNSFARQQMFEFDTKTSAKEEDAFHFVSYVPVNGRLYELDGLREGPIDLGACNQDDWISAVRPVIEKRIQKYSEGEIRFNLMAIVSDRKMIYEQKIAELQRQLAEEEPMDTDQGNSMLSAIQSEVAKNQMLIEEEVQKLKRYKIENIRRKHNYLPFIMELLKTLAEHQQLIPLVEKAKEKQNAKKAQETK
#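 Assay system: Proteasome-bound UCH37. Buffer or medium: pH 7.4 Tris-HCl (50 mM) with ovalbumin, ATP-MgCl2, DTT. Incubation: 30 min preincubation with enzyme, 25 min cleavage at room temperature. Measured by: fluorescence, ex 355 nm, em 460 nm. Read-out basis: percent inhibition. Control set: wells without proteasome as full block, compound-free enzyme plus substrate as uninhibited.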
# RanGTP-Impb inh: inhibitors of RanGTP-importin-beta interaction, primary screen, biochemical, FRET, CFP-Ran, YFP-importin-beta, homogeneous. Ran GTPase (GTP-bound) - importin-beta complex. cell-free CFP-Ran/YFP-importin-beta FRET ratio. inhibition, % (concentration not given with the values). hit rate 1.1% among 300,000. AID 2216, 2009;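 active = most replicates above 15%; inconclusive = exactly half above 15%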;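 note: 0% = DMSO wells and 100% = Ran loaded with GDP instead of GTP; wells of about 40 µL received 100 nL stock; the first replicate is given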
# Beta cell apopt: inhibitors of cytokine-induced beta cell apoptosis, primary screen, luminescence; INS-1E cytokine-induced death, ATP luminescence, 48 h; percent of positive-control rescue, neutral wells zero; hit rate 0.8% among 300,000; protection from apoptosis, % (concentration not given with the values);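 active = all replicates at 75% or more, or half of them and the mean; inconclusive = half reach 75% but not the mean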;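 note: 0% = cytokine-treated negative control wells and 100% = positive control rescue; higher means more ATP so stronger rescue from cytokine killing; wells of about 40 µL received 100 nL stock; the first replicate is given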
# A1 inh: caspase 3/7 activation in MEF A1-2A-BIM cells, primary screen, A1 inhibitor project, cell-based, luminescence, HTS; hit rate 0.066% among 330,000; caspase activation, % (concentration not given with the values); Caspase-Glo 3/7 luminescence, 3 h; percent of clofoctol response, vehicle zero;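 active = over half of replicate activation scores above 10%, or exactly half above 10 with the replicate mean above 10; inconclusive = replicate mean below 10 yet half the replicates above 10; inactive = over half of replicates below 10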;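 note: wells of about 30 µL received 50 nL stock; many hits fall short of the cut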
# An asterisk follows results filed as active; u = inconclusive; x = no result given. The order is random. About 4.3% of those tested had a hit in this group.
no.	Molecule	Calb FLC	LANA-H2A inh	B2AR ag	T cruzi inh	UCH37 inh	RanGTP-Impb inh	Beta cell apopt	A1 inh
1	CN(c1ccccc1)S(=O)(=O)c1cccc(NC(=O)CSc2nnc(C3CC3)n2C)c1	x	5.5	-6	x	0.5	x	-3	0.4
2	N#Cc1ccccc1Sc1ccccc1C(=O)N1CCOCC1	9	0.9	-1	-4	-3.5	-1.7	-4	-1.4
3	COc1cc(NS(=O)(=O)c2ccc3[nH]c(=O)oc3c2)cc(OC)c1	5	-3.9	11	-10	1.1	1.4	x	1.7
4	O=C(CN1C(=O)COc2ccccc21)NCC1CCCO1 (stereo not given)	17	-2.4	-1	-9	-1.1	4.4	-6	0.2
5	COC(=O)c1ccc(C(=O)OC)c(NC(=S)N2CCN(c3ccccc3F)CC2)c1	2	0.1	2	-14	-2.3	11	0	-0.5
6	CC1CCCCN1C(=O)C(=O)c1cn(CC(=O)N2CCCCCC2)c2ccccc12 (stereo not given)	-9	-1.3	13	64*	3.7	3.0	4	0.5
7	COC/C=C/C1=CC2=CC(=O)C(C)(OC(=O)c3cnc4ccccc4n3)C(=O)C2=CN1c1ccc(CO)cc1 (stereo not given)	1	3.7	x	-1	x	6.5	5	-1.4
8	COc1cc(COCC(O)CN2CCCCC2C)cc(OC)c1OC (stereo not given)	-5	-1.7	-4	0	1.4	-1.2	1	0.4
9	CCOC(=O)N=S(=O)(Oc1ccc([N+](=O)[O-])cc1)c1ccccc1 (stereo not given)	7	-0.5	0	-5	0.3	-0.9	6	1.1
10	O=C(NCc1ccc(Cl)cc1)C(=O)c1c[nH]c2ccccc12	u	-0.9	7	-3	3.0	3.1	-2	0.1
11	CC(/C=C1\SC(=S)N(CC(=O)N2CCN(c3ccccc3)CC2)C1=O)=C\c1ccccc1	-4	1.8	8	-17	4.1	-0.3	-2	-0.1
12	CCOc1ccc(C(=O)OC(C)C(=O)N2CCN(Cc3ccccc3)CC2)cc1 (stereo not given)	x	3.6	-10	x	-0.9	x	-1	0.5
13	O=C(Nc1ccc2ccccc2n1)c1ccccc1Cl	0	5.6	-9	-2	4.1	9.7	x	-7.8
14	CCOC(=O)c1cnc(SCC(=O)c2ccccc2)nc1N	-7	-0.5	-16	-6	5.7	0.1	0	-2.9
15	O=C(O)CN1C(=O)C2(OCCCO2)c2ccccc21	12	-0.7	0	-14	3.9	2.9	-3	-0.4
16	CN(CC(=O)Nc1ccncc1)S(=O)(=O)c1ccc(Cl)cc1	2	4.2	-7	1	0.5	-4.0	-6	0.2
17	CC1CCCN(Cc2c(O)ccc3c2O/C(=C\c2ccco2)C3=O)C1 (stereo not given)	31	6.3	2	-4	-34	-50	-1	-0.6
18	CCCCn1nc(C(=O)N(CC)CC(=O)Nc2c(F)cccc2F)c2ccccc2c1=O	x	-3.8	-5	x	2.7	x	1	-1.2
19	Cc1nn(C2CCS(=O)(=O)C2)c(Cl)c1/C=C/C(=O)OCC(=O)Nc1ccc2c(c1)OCO2 (stereo not given)	0	4.2	-6	-6	3.4	u	-5	-1.5
20	O=C(c1cccnc1)N1CCc2ccccc2C1	-18	5.5	8	-7	3.6	2.5	-2	0.2
21	CSc1nc(NCCCO)c2c3c(sc2n1)CN(C)CC3	-15	4.6	5	26	-206	2.6	4	0.5
22	CCNC(=S)N/N=C(\C)c1ccc(N2CCOCC2)cc1	5	-1.3	1	-21	x	0.1	0	1.3
23	CCOC(=O)C1(Cc2cccc(OC)c2)CCN(Cc2cccc(O)c2)CC1	11	-1.9	-4	8	x	6.1	-13	u
24	CCOc1cc(C(=O)OCC(=O)c2c[nH]c3ccccc23)ccc1OCC(=O)N1CCOCC1	-8	-0.1	9	-8	4.7	1.3	1	0.6
25	COc1c(Cl)cc(Cl)cc1CNCCO	-8	-5.1	6	-5	2.3	-0.4	2	-0.2
26	O=C(COc1ccc(S(=O)(=O)NCc2ccccc2)cc1Cl)NCC1CCCO1 (stereo not given)	u	1.0	1	3	1.7	-1.7	2	0.4
27	CCOc1ccc(-c2c(=O)n(OCc3ccccn3)c3ccccc3[n+]2[O-])cc1	7	-1.0	-14	-1	-3.7	-3.7	-7	0.9
28	CC(=O)c1ccc(Sc2ccccc2)c([N+](=O)[O-])c1	3	0.0	-11	2	3.4	3.1	0	0.4
29	CC(C)(C)c1ccc(OCCC(=O)Nc2ccc(N3CCOCC3)cc2N2CCOCC2)cc1	-6	-2.3	4	16	1.9	-2.5	5	0.4
30	COc1cccc(/C=C/C(=O)OCC(=O)Nc2cccc(S(=O)(=O)N3CCOCC3)c2)c1OC	9	1.4	-5	1	-9.3	-0.3	-5	-0.5
31	O=C1NC2(C=Cc3c(ccc4ccccc34)O2)Oc2ccccc21 (stereo not given)	9	-4.1	-6	-11	-216	1.3	0	0.4
32	CCn1cc(CN2CCC(C(=O)Nc3cccc(-c4cccc(OC)c4)c3)CC2)cn1	2	2.2	1	-9	2.6	4.8	-2	0.5

# Looked up one by one from the entries so far, 2 records:
no.	Molecule	Calb FLC	LANA-H2A inh	B2AR ag	T cruzi inh	UCH37 inh	RanGTP-Impb inh	Beta cell apopt	A1 inh
25	COc1c(Cl)cc(Cl)cc1CNCCO	-8	-5.1	6	-5	2.3	-0.4	2	-0.2
30	COc1cccc(/C=C/C(=O)OCC(=O)Nc2cccc(S(=O)(=O)N3CCOCC3)c2)c1OC	9	1.4	-5	1	-9.3	-0.3	-5	-0.5

# Next results follow.
no.	Molecule	Calb FLC	LANA-H2A inh	B2AR ag	T cruzi inh	UCH37 inh	RanGTP-Impb inh	Beta cell apopt	A1 inh
33	Cc1cc(C)c(S(=O)(=O)N2CCN(c3ccc([N+](=O)[O-])c(NCc4ccco4)c3)CC2)c(C)c1	0	0.4	4	19	7.5	3.5	3	2.0
34	COCCCN(C(=O)c1ccccc1F)c1nc(-c2ccc(OC)cc2)cs1	15	-4.5	3	21	0.7	u	-1	0.2
35	CCOc1ccc2[nH]c(=O)c(=O)[nH]c2c1	x	-0.2	4	x	0.7	x	-3	0.3
36	COC(=O)c1cc(C)nc(Sc2ccccc2NC(C)=O)n1	-2	-11	2	-26	2.4	-1.5	0	0.6
37	Nc1ccc(CCc2nc3ccccc3o2)cc1	-25	3.8	5	7	5.6	1.9	-1	-3.1
38	CN1C(=O)c2cccc3c(S(=O)(=O)Nc4ccccn4)ccc1c23	-6	1.1	-5	-4	-0.1	0.4	-6	0.0
39	Cc1cccc(Cc2cnc(N3C(=N)SC(C)C3=O)s2)c1 (stereo not given)	94*	1.8	4	68*	2.9	-2.7	3	1.5
40	Cc1ccc(S(=O)(=O)N=S(CC2CC2(Cl)Cl)CC2CC2(Cl)Cl)cc1 (stereo not given)	-4	x	5	4	1.3	0.2	x	x

# Results in sequence from the entries so far.
# Nos. 33 to 38 in RanGTP-Impb inh read 3.5, u, x, -1.5, 1.9, 0.4
# Nos. 33 to 38 in Beta cell apopt read 3, -1, -3, 0, -1, -6
# Nos. 33 to 38 in A1 inh read 2.0, 0.2, 0.3, 0.6, -3.1, 0.0

# Later entries
no.	Molecule	Calb FLC	LANA-H2A inh	B2AR ag	T cruzi inh	UCH37 inh	RanGTP-Impb inh	Beta cell apopt	A1 inh
41	CCN1CCN(S(=O)(=O)c2ccc(Cl)c(C(=O)NC(C)(C)C)c2)CC1	4	-1.7	-5	-5	5.2	-0.3	1	1.1
42	COc1cc2c(cc1OC)C(c1cccs1)N(C(=O)c1cccnc1)CC2 (stereo not given)	53	0.3	-2	-33	-0.5	-0.4	8	0.2
43	NS(=O)(=O)c1ccc(NS(=O)(=O)c2cccs2)cc1	3	1.6	-4	-8	-1.8	-1.0	-3	-0.5
44	O=C(O)CC1S/C(=N\N=C2CCCCCC2)N(c2ccccc2)C1=O (stereo not given)	-1	7.0	8	0	x	-3.1	-5	0.7
45	N#CCCCSc1nnc(-c2ccccn2)o1	0	5.1	-9	-5	2.5	1.6	5	-0.3
46	O=C(c1ccc(Cn2cc(Br)cn2)cc1)N1CCN(c2ccccc2)CC1	23	-8.8	-7	2	4.9	-2.6	-1	-1.0
47	Cc1ccc2[nH]c3c(c2c1)CN(C(=O)CN1CC(C)OC(C)C1)CC3 (stereo not given)	x	-18	-138	x	-1.4	x	-11	1.6
48	COc1cc(Cl)c(C)cc1NC(=O)CSc1sc2c(O)cc(=O)[nH]c2c1C#N	-3	2.4	22	4	x	3.6	-1	-0.3
49	O=c1cc(-c2ccccc2)nc(SCc2ccc(Cl)cc2)[nH]1	0	4.5	-13	1	-2.4	3.7	-10	-1.1
50	CC(C)S(=O)(=O)c1nsc2nc(=O)c(/C=C3\C=Nc4ccccc43)c(N)n12	6	6.2	8	4	-1.3	31*	1	-0.2
51	Cc1nn(CC(=O)N2CCN(C(=O)c3ccco3)CC2)c(C)c1[N+](=O)[O-]	x	0.9	-4	x	0.3	x	-6	0.2
52	O=C(NCCc1ccccc1)c1ccc(S(=O)(=O)N2CCCC2)cc1	x	1.4	5	x	2.4	x	-1	0.5
53	Cc1cc(S(=O)(=O)NCc2ccccc2)ccc1OCC(=O)N1CCOCC1	8	3.6	-2	-7	1.9	2.4	-4	-0.6
54	O=C(NC1CCCCC1)C1CCCN1S(=O)(=O)c1cccc2nsnc12 (stereo not given)	-3	2.2	5	0	3.4	u	2	0.4
55	CCCCOc1ccc(-c2ncc(Cl)cn2)cc1	-13	-7.1	2	4	2.2	-4.8	0	0.1
56	COc1ccc(/C=N/n2cnnc2)cc1Br	1	1.3	0	1	x	-4.9	-3	0.0
57	Cc1cc(=O)n2nc(N3CCCC(C(=O)NCc4ccccc4Cl)C3)sc2n1 (stereo not given)	-7	1.3	-3	-17	2.2	4.0	-1	-1.0
58	CSc1ccc(/C=C(/NC(=O)c2ccc(C)cc2)C(=O)Nc2cccc(F)c2)cc1	-5	2.6	-1	8	x	0.2	1	0.2
59	O=C1NCCN/C1=C\C(=O)c1cccc(Br)c1	-3	-6.9	1	-6	9.5	-5.9	-12	-0.7
60	O=C(Cn1nnc2ccccc2c1=O)Nc1cccc(S(=O)(=O)N2CCOCC2)c1	-9	-0.4	3	-5	-3.2	2.3	4	0.4
61	CC(C)c1cc(C(=O)Nc2cccc(C(F)(F)F)c2)no1	9	-2.0	4	3	4.9	6.9	-10	-0.2
62	COCc1c(C(=O)NCC2COc3ccccc3O2)oc2ccccc12 (stereo not given)	x	-7.2	-7	x	2.0	x	-1	-0.1
63	C=CCC[C@H](Cc1ccc(F)cc1)C(=O)OC[C@H](C)NC(=O)[C@H](CC=C)CC(=O)NCCO	x	-4.3	-6	x	16	x	4	0.3
